Six1-Eya2 inh – inhibitors of human Six1/Eya2 interaction; Q15475+O00167; AlphaScreen GST-Six1/His-Eya2 binding, biochemical; stronger effect = lower value; control for the full effect not named in the record; activity change, % (test concentration not listed); 360,000 tested, 0.56% active; AID 651725; in the data active = activity change below about -65%; inconclusive = about -30% to -65%; inactive = above about -30%; further: on the % scale 0 is the no-effect control and ±100 the full control effect; compound concentration not given in the record
Target sequence (O00167 whole entry, looked up): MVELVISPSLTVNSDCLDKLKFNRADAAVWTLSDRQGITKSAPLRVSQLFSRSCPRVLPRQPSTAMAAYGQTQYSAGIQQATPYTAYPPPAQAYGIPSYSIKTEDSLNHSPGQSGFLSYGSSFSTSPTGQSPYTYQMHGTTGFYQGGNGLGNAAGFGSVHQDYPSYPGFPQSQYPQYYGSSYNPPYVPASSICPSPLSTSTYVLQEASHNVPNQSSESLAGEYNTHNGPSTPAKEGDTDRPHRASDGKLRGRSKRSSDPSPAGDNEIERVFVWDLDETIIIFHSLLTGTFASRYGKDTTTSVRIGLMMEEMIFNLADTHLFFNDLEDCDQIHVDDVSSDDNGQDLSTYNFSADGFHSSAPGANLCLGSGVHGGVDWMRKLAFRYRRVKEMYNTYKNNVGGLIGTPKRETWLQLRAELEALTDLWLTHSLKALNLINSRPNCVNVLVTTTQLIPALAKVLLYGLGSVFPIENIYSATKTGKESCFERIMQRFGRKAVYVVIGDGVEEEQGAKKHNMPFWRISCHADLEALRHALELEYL
Target sequence (Q15475 whole entry, looked up): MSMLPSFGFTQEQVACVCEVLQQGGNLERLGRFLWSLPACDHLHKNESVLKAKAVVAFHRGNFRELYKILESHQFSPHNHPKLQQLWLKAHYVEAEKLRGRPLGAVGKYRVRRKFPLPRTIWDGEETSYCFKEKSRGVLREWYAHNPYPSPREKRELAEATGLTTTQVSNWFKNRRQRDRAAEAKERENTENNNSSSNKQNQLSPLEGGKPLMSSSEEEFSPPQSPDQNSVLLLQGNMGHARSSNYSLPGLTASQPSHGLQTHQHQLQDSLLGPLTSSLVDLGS
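GST-Six1 + His-Eya2 (5X stock: 250/500 nM); Tris pH 8.0, 300 mM NaCl, 0.05% BSA, 0.02% Tween 20; GSH donor/Ni acceptor beads; 1 h 37 °C dark; AlphaScreen readout.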
TRPV1 potentiator – enhances activation of the human vanilloid receptor TRPV1; potentiation, % at 8.33 µM; TRPV1-expressing cells, Fluo-8 calcium influx, capsaicin EC20 potentiation; host cell line not named in the record; control for the full effect not named in the record; AID 540277; Q8NER1; 320,000 tested, 0.02% active; active means potentiation above 80%; inconclusive means 30% to 80%; inactive means below 30%; further: 0% is about no effect
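Cells expressing TRPV1 were dye-loaded with Fluo-8 and read kinetically: 10 s baseline, 3 min after compound (agonist portion), then 2 min after EC20 capsaicin (allosteric enhancer portion). Calcium-bound dye fluorescence at 480/520 nm.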
D2 agonist – human D2 receptor agonism in beta-arrestin assay | P14416 | DiscoveRx PathHunter D2 beta-arrestin, luminescence, 90 min; 100% = 57 uM dopamine signal | activation, % (no concentration beside the values) | 360,000 tested, 0.084% active | AID 624465; in the data active = activation above about 40%; inconclusive = about 15% to 40%; inactive = below about 15%; further: compound concentration not given in the record; the text of the record calls up to 30% inactive
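DiscoveRx PathHunter D2 beta-arrestin cells (2,100/well) attached overnight, then compound-stimulated 90 min at 37 C in HBSS/10 mM HEPES/0.1% Tween-20 buffer; beta-galactosidase complementation read by luminescence after 1 h at ambient temperature. Dopamine 57 uM final (EC100) as control.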
PINK1 expr mod – modulators of PINK1 expression; PINK1 immunofluorescence, high-content cytometry, 24 h; Potency, µM (titrated, usually from 76.6 µM), without a hit: top-dose activation (PINK1 increase), hits mostly activators; 410,000 tested, 0.2% active; active = well fitted activation curve with a large enough effect; inconclusive = small, poorly fitted or top-dose-only effect; inactive = flat fitted curve, though single readings scatter; cell line not stated here;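 further: potency means the concentration at half of the fitted maximal effect; % of control where 0% means no effect; nearly all actives have a fitted effect of over 65% in size; a mitochondrial uncoupler was the plate control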
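Readout is PINK1 immunofluorescence, quantified alongside mitochondrial, cell and nuclear markers by laser-scanning microplate cytometry. Cells from a stable line were exposed to compound titrations (5 concentrations) for 24 hours, with CCCP controls.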
D2 PAM – human D2 receptor positive allosteric modulation; potentiation, % (test concentration not listed); DiscoveRx D2 beta-arrestin cells, luminescence, 90 min; 100% = 57 uM dopamine signal; 360,000 tested, 0.23% active; P14416; AID 624464; active = potentiation of 50% or more; inconclusive = 30% to 50%; inactive = 30% or less;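 further: compound concentration not given in the record; tested on top of an EC20 dose of dopamine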
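PathHunter D2 cells, attached overnight at 37 deg C, received compound in DMSO plus dopamine at EC20 (50 nM final) for 90 min at 37 deg C. Beta-arrestin recruitment was read as luminescence after 1 h with detection reagent at ambient temperature.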
CtBP-E1A blk – inhibitors of CtBP/E1A interaction; AlphaScreen GST-E1A/His-CtBP binding, 1536-well; stronger effect = lower value; control for the full effect not named in the record; activity change, % (concentration not given with the values); 340,000 tested, 0.49% active; AID 651724; in the data active means activity change below about -65%; inconclusive means about -30% to -65%; inactive means above about -30%; further: on the % scale 0 is the no-effect control and ±100 the full control effect
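GST-E1A and His-tagged CtBP (125 nM each as 5X stock) were preincubated with pin-transferred compound for 2 h at 37 °C in the dark, then glutathione donor and nickel acceptor beads were added for 1 h before AlphaScreen reading.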
Sfp PPTase inh – Sfp phosphopantetheinyl transferase inhibition; AID 1490; Potency, µM, for the others: max response, negative = inhibition, usual class: inhibitors; 310,000 tested, 3.5% active; Biochemical Sfp PPTase activity, qHTS; Q9F4F7; active means well fitted inhibition curve with a large enough effect; inconclusive means small, poorly fitted or top-dose-only effect, or another doubt; inactive means no such curve, though single readings can be large or run the other way;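 further: the enzyme is Sfp with the accession as filed and its product quenches rhodamine fluorescence; potency means the concentration at half of the fitted maximal effect; 0% = enzyme reaction without inhibitor and -100% = no enzyme wells; top concentration of the series not given in the record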
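Fluorescence-quenching assay: 15 nM Sfp-PPTase preincubated 15 min at room temperature with compound, then 5 uM rhodamine-CoA and 12.5 uM BHQ-2-labelled YbbR peptide added. Fluorescence (ex 525/em 598 nm) read at start and after 30 min; difference gives rate.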
* = called active by the depositor; ? = inconclusive; . = no result given; & = joins results of further samples; [ ] = remark or other dose.

SMILES	Six1-Eya2 inh	TRPV1 potentiator	D2 agonist	PINK1 expr mod	D2 PAM	CtBP-E1A blk	Sfp PPTase inh
CCN(CC(=O)Nc1ccccc1C(=O)NC1CC1)Cc1cccs1	5	-9	-0.9	0.0%	-14	9	.
COC(=O)c1cc(C(=O)NC(C)C2CC3CCC2C3)cc([N+](=O)[O-])c1 (stereo not drawn)	-5	-9	-4.0	5.6%	-4	-10	-14%
CC(OC(=O)CCC1CCCCC1)C(=O)Nc1ccc(S(N)(=O)=O)cc1 (stereo not drawn)	-1	-5	-4.0	5.5%	-1	-2	.
COC(=O)c1ccc(N=CC2=C(O)CC(c3ccccc3)CC2=O)cc1 (stereo not drawn)	4	-9	-0.1	-0.4%	0	10	16%
S=C(NC1CCCCC1)N1CCN(Cc2ccccc2Cl)CC1	-9	-15	1.8	3.1%	23	.	9%
CCOC(=O)C1CCN(C(=O)COc2ccc(N(C)S(=O)(=O)c3ccc(OCC)cc3)cc2)CC1	23	-10	-1.5	0.3%	-4	3	-6%
COc1ccc(-c2csc(NC(=O)CSc3nnnn3C)n2)c(OC)c1	-1	-7	3.2	18%	2	-14	.
CSCCC1NC(=O)N(CC(=O)N2CCc3ccccc3C2)C1=O (stereo not drawn)	4	-5	2.6	-0.7%	-2	2	.
COc1ccc(-c2c(-c3ccc4c(c3)OCO4)c3ccccc3n2C)cc1	?	.	0.0	1.4%	.	?	.
CCc1nc2ccc(C(=O)N3CCN(c4cccc(C)c4C)CC3)cc2nc1CC	-9	-5	-4.1	3.4%&0.4%	5	-10	-16%
COc1ccc(CNC(=O)C(=O)NCC2OCCN2S(=O)(=O)c2ccccc2)cc1 (stereo not drawn)	4	.	-2.8	-0.3%	-8	23	.
COc1ccc(S(=O)(=O)N2CCOC23CCN(S(=O)(=O)c2c(C)cc(C)cc2C)CC3)cc1	3	-1	0.1	-0.1%	0	-3	.
CCOC(=O)c1c(NC(=O)COC(=O)Cc2ccccc2[N+](=O)[O-])sc(C(=O)N(C)C)c1C	-11	0	-6.6	3.1%	-1	-8	.
Cc1ccc(N2CC(C(=O)Nc3cc(C)on3)CC2=O)cc1 (stereo not drawn)	3	-1	-4.1	0.7%[38.3 µM]	-8	2	-2%
O=C1c2ccccc2C(Nc2ccc(Cl)cc2)N1CCN1CCOCC1 (stereo not drawn)	-2	-32	-1.3	-1.3%	-6	1	-6%
Cc1ccccc1N1CC(C(=O)Nc2nnc(SCCC3OCCO3)s2)CC1=O (stereo not drawn)	-10	-1	4.2	9.7%	9	8	-16%
O=C1C2C(c3ccccc3)C=CC(c3ccccc3)C2C(=O)N1c1ccncc1 (stereo not drawn)	11	9	1.4	-0.9%	-17	-1	11%
COc1cccc(CN(C(=O)Cn2nnc(-c3ccccc3F)n2)C(C(=O)NC(C)(C)C)c2ccncc2)c1 (stereo not drawn)	17	11	-1.5	-0.3%	1	24	8%
Cc1nc2ncnn2c(N2CCN(c3cccc(C(F)(F)F)c3)CC2)c1C	-8	-13	2.0	-4.1%[38.3 µM]	-6	-15	-27%
O=c1c(C=NCC2CCCO2)c(-c2ccccc2)[nH]n1-c1ccc([N+](=O)[O-])cc1 (stereo not drawn)	12	-19	-1.1	17%	-7	7	?
COCCN(CC(=O)Nc1cccc(C)c1C)C(=O)c1ccc2c(c1)OCO2	-3	11	-4.2	-0.1%	-7	7	.
O=C1NCC(=O)N2CCC[C@@H]12	7	.	-3.4	0.5%	-23	6	.
O=C1C=C(c2ccccc2Oc2ccccc2)C[C@@H](c2ccc(F)cc2)C1	7	.	-8.6	1.6%	3	21	.
O=C(Nc1nc(-c2ccc3c(c2)OCCO3)cs1)c1ccc(S(=O)(=O)N2CCCCC2)cc1	8	-9	-2.3	?	-12	47	12%
CC(=O)N(C)Cc1ccc(C(=O)CCl)cc1	4	10	-5.4	0.6%	-9	-23	79µM*
CC(C)CC(N)C(=O)OCc1ccc([N+](=O)[O-])cc1 (stereo not drawn)	9	.	-1.0	1.7%	-1	10	12%
Cc1ccc(S(=O)(=O)Nc2cccc3ncccc23)s1	-86*	8	-7.6	1.7%	-17	-81*	17%
COc1ccc(C(=O)N2CCCC(C(=O)N3CCN(c4ccccc4)CC3)C2)cc1 (stereo not drawn)	3	24	-2.2	0.0%	2	3	9%
COc1cccc(N2CCN(C(=O)c3ccc(OC)c(S(=O)(=O)NC4CC4)c3)CC2)c1	-4	.	2.1	8.7%	6	2	.
O=S1(=O)c2c(F)cccc2O[C@@H](COCc2ccccc2)CN1CCc1ccc(F)cc1	9	.	3.3	-0.8%	.	17	.
COc1ccc(-c2nnc(SCC(=O)N3CCCC3=O)n2N)cc1OC	-1	.	6.9	-0.3%	3	.	.
O=C(NCC(c1ccccc1)N1CCCC1)C1CCN(C(=O)Nc2ccccc2)CC1 (stereo not drawn)	-8	-7	-4.7	0.3%	-16	12	.
COc1ccc(CN2CCNC(=O)C2CC(=O)N(C)CCCN2CCOCC2)cc1C (stereo not drawn)	1	-11	-0.7	-1.4%	-9	3	14%
Cc1cccc(OC(=O)c2cncc(Br)c2)c1	18	2	-3.4	2.1%	-1	18	-7%
O=C(CSc1nc2ncccc2[nH]1)c1ccc(F)cc1	6	4	-0.4	-1.1%	-30	-7	1%
CCOC(=O)Nc1nnc(/C=C/c2ccc(OC)cc2)s1	0	2	0.3	-1.5%	-9	5	3%
O=C(CSc1nc2c(c(=O)n1-c1ccc(F)cc1)SCC2)NCc1ccco1	-7	-38	-1.1	-1.7%	6	-1	-5%
N#Cc1c(N)nc2c(c1N)CC(=O)N2c1ccc(Cl)cc1	-14	14	2.6	-2.3%[38.3 µM]	6	-19	-10%
Cc1cnc(NC(=O)CSc2nnc(COc3ccccc3)o2)s1	-4	?	-8.6	-0.2%	-4	-4	13%
c1ccc(C2(CN3CCNC[C@@H]3CC3CCCCC3)CC2)cc1	2	.	-2.1	5.0%	-7	0	.
COC(=O)c1ccc(Cn2cnc3c(Cl)ncnc32)cc1	-8	.	-1.7	0.6%	1	-8	.
Cc1ccc(/C=N/NC(=O)c2ccc3nc[nH]c3c2)s1	-6	-1	-4.9	3.4%	-1	-7	0%
CC(C)c1cc[n+](-c2nc([O-])sc2C=O)cc1	-11	-21	2.0	-1.7%	6	-9	40µM*
CC(O)(c1cccnc1)c1nc(-c2cc(F)cc(F)c2)cs1 (stereo not drawn)	12	.	-4.1	0.5%	1	0	.
CCOC(=O)N1CCN(C(=O)c2c[nH]c3ccc(S(=O)(=O)N(C)c4ccccc4C)cc3c2=O)CC1	-3	7	1.4	1.0%	-4	0	16%
CC(O)c1nc2ccccc2n1CCCc1ccccc1 (stereo not drawn)	1	-17	-3.8	-0.9%	-3	-18	6%
Cc1ccc(NC(=O)CN2C(=O)NC(Cc3ccccc3)C2=O)cc1Cl (stereo not drawn)	-10	-6	2.9	0.4%	-9	.	.
O=C(COc1ccc(Cl)cc1Cl)OCC(=O)N1CCCc2ccccc21	5	-4	-1.7	0.8%	2	8	4%

An excerpt from above in order of number of heavy atoms, highest first:
SMILES	Six1-Eya2 inh	TRPV1 potentiator	D2 agonist	PINK1 expr mod	D2 PAM	CtBP-E1A blk	Sfp PPTase inh
CCOC(=O)N1CCN(C(=O)c2c[nH]c3ccc(S(=O)(=O)N(C)c4ccccc4C)cc3c2=O)CC1	-3	7	1.4	1.0%	-4	0	16%
O=C(CSc1nc2c(c(=O)n1-c1ccc(F)cc1)SCC2)NCc1ccco1	-7	-38	-1.1	-1.7%	6	-1	-5%
O=C(COc1ccc(Cl)cc1Cl)OCC(=O)N1CCCc2ccccc21	5	-4	-1.7	0.8%	2	8	4%
Cc1cnc(NC(=O)CSc2nnc(COc3ccccc3)o2)s1	-4	?	-8.6	-0.2%	-4	-4	13%
c1ccc(C2(CN3CCNC[C@@H]3CC3CCCCC3)CC2)cc1	2	.	-2.1	5.0%	-7	0	.
CC(O)c1nc2ccccc2n1CCCc1ccccc1 (stereo not drawn)	1	-17	-3.8	-0.9%	-3	-18	6%
Cc1ccc(/C=N/NC(=O)c2ccc3nc[nH]c3c2)s1	-6	-1	-4.9	3.4%	-1	-7	0%

Later entries.
SMILES	Six1-Eya2 inh	TRPV1 potentiator	D2 agonist	PINK1 expr mod	D2 PAM	CtBP-E1A blk	Sfp PPTase inh
CC(C)NC(=O)C1(C)CCN1C(=O)C1(c2ccccc2)CCCC1 (stereo not drawn)	9	.	2.4	-0.4%	-4	7	.
O=C(COC(=O)CN1C(=O)C2CCCCC2C1=O)Nc1ccc(F)c(F)c1F (stereo not drawn)	3	.	4.2	3.2%	-1	5	.
Cc1nc2c(F)c(F)c(C(F)(F)F)c(F)c2[nH]1	2	-14	-4.5	1.3%	1	10	11%
CNC(=S)Nc1ccc(C(N)=O)cc1	2	-10	-5.9	-0.2%	1	7	79µM*
